Source: PubChem BioAssay
G9a block = inhibitors of human histone lysine methyltransferase G9a. Q96KQ7. 8.8% of 350,000 active. AID 504332. G9a H3K9 monomethylation, AlphaScreen, 2 h. Potency, µM (top dose mostly 102 µM), for the others: at the top dose activity, negative = inhibition, hits mostly inhibitors; further: potency means the concentration at half of the fitted maximal effect; on the % scale 0 is the no-effect control and ±100 the full control effect; nearly all actives have a fitted effect of over 75% in size
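Step 1: enzyme (final 20 nM) with compound, 15 min RT. Step 2: substrate peptide 500 nM and SAM 20 uM, 2 h RT. Step 3: anti-H3K9me1 antibody and AlphaScreen beads, 10 min, then plate read.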
GLS inh = inhibitors of human glutaminase (GLS). GLS enzymatic activity, qHTS titration. O94925. 0.21% of 410,000 active. Potency, µM (titrated, usually from 45.5 µM), for the others: at the top dose activity change, negative = inhibition, hits mostly inhibitors; further: potency means the concentration at half of the fitted maximal effect; on the % scale 0 is the no-effect control and ±100 the full control effect
Target sequence (O94925 whole entry, looked up): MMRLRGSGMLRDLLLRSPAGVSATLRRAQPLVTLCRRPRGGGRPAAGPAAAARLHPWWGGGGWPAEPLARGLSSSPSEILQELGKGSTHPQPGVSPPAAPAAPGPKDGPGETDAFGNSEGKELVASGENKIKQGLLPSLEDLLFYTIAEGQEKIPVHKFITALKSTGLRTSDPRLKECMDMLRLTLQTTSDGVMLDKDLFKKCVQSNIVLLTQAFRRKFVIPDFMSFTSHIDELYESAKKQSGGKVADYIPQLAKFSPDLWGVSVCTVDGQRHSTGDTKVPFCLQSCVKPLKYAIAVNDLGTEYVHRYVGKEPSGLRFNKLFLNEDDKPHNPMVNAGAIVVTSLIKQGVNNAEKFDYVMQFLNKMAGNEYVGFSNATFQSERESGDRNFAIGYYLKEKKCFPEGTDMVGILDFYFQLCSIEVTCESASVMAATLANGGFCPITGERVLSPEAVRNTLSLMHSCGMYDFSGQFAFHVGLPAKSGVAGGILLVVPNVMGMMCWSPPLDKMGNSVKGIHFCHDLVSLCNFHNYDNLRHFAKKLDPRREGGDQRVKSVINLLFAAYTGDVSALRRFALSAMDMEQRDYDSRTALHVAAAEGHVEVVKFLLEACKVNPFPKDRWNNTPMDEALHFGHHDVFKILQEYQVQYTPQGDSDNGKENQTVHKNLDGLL
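Human kidney-isoform GLS in 45 mM KH2PO4 pH 8.2, 0.02% Tween-20, with compound, started with 1mM L-Glutamine (added stock). Glutamate oxidase/HRP/Amplex red coupled fluorescence read at start and after 30 min at RT.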
RGS4 inh = blocks human RGS4-accelerated GTP hydrolysis | Transcreener GDP fluorescence polarization, RGS4-accelerated GTP hydrolysis | Potency, µM (series often up to 114 µM), inactives show top-dose activity change, negative = inhibition, usual class: inhibitors | 0.039% of 390,000 active | AID 504845; further: potency means the concentration at half of the fitted maximal effect; on the % scale 0 is the no-effect control and ±100 the full control effect; nearly all actives have a fitted effect of over 75% in size; some results filed as inactive show a strong effect at the top dose
Target sequence (P49798 whole entry, looked up): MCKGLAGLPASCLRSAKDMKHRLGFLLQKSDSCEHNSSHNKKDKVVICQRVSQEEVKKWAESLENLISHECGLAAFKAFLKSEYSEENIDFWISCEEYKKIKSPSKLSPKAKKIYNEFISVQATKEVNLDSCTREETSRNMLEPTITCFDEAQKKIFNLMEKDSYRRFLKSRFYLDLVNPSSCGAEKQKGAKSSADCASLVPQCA
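MLSMR compounds (23 nl, pin-transferred) preincubated 10 min at room temperature with a 500nM (2x) first reagent, then RGS4 at 900nM (2x) plus Transcreener GDP mix added; fluorescence polarization (620/688 nm) read before and after 90 min at 30 °C.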
PI4K2A inh = PI4K2A (human) kinase inhibition. Q9BTU6. purified PI4K2A, ADP-Glo luminescence, 1 h; active compounds read low. activity change, negative = inhibition, % at 76.9 µM. 0.13% of 420,000 active. AID 1346378; in the data active means activity change below about -50%; inconclusive means mostly about -30% to -49%;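 further: -100% = wells without enzyme as full effect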
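Compounds are screened against recombinant PI4K2A using PI as substrate and ATP, the latter dispensed at 300 microM. Reactions run one hour at ambient temperature before ADP-Glo detection; full inhibition defined by wells lacking enzyme.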
ERG-DNA inh = inhibitors of human ERG Ets domain-DNA interaction. P11308. fluorescence polarization, His-ERG Ets domain / labelled DNA. Potency, µM (series often up to 76.9 µM), inactives show top-dose FP activity, negative = inhibition, hits mostly inhibitors. 0.028% of 370,000 active; active means well fitted inhibition curve with a large enough effect in the polarisation, with a control signal flat; inconclusive means small, poorly fitted or top-dose-only effect, or effect the other way, or a change in a side signal; inactive means no such curve, though single readings can be large or run the other way; the % refers to the polarisation;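 further: polarization taken with two DNA probes labelled with fluorescein and Texas red; potency means the concentration at half of the fitted maximal effect; % of control where 0% means no effect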
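His-tagged ERG Ets domain (1 uM in the protein solution; 300mM KCl, 50mM Tris-HCl, 1mM EDTA, 1mM DTT, pH 7.5) received compound, then a probe mix of 5 nM fluorescein-DNA and 100nM Texas-615-DNA. Fluorescence polarization was read for both dyes.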
12-LOX inh = blocks human arachidonate 12S-lipoxygenase; P18054; purified 12hLO, xylenol orange hydroperoxide absorbance; Potency, µM (series often up to 108 µM), for inactives: at the highest dose activity change, negative = inhibition, hits mostly inhibitors; 1.1% of 580,000 active; AID 1671190; further: potency means the concentration at half of the fitted maximal effect; on the % scale 0 is the no-effect control and ±100 the full control effect
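Hydroperoxide product was detected by ferrous iron/xylenol orange as the 573 to 405 nm absorbance ratio. Arachidonic acid at 40 uM (final) was turned over for 30 min at room temperature by 150 nM human 12hLO, pH 7.0 Hepes buffer, after 15 min compound preincubation.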
An asterisk follows results filed as active; ? = inconclusive; . = not tested or not shown; & = joins results of further samples; [ ] = another dose, or the depositor's remark. Unless noted, the call rests on the fitted dose curve; in most records, active means well fitted curve in the direction sought with a large enough effect; inconclusive means small, poorly fitted or top-dose-only effect, or another doubt; inactive means no such curve, though single readings can be large; an effect the other way counts as inactive or inconclusive. This is a subset; rates above refer to the full screens.

SMILES	G9a block	GLS inh	RGS4 inh	PI4K2A inh	ERG-DNA inh	12-LOX inh
O=C(c1cccc(-c2ccco2)c1)N1CCCC(N2CCN(c3ccc(F)cc3)CC2)C1 (stereo not drawn)	?	21%	-15%	5	6%	.
CCOC(=O)C1CCCN(Cc2nc(N)nc(Nc3ccc(C)cc3)n2)C1 (stereo not drawn)	4%[12.7 µM]	1%	-30%	2	10%	0%
Cc1cc(C)c(OCCN2CC(C)OC(C)C2)c(Br)c1 (stereo not drawn)	8.9µM*	10%	-7%	0	1%	-20%
CCN(CC(=O)Nc1cc(Cl)ccc1OC)CC(=O)NC1CCS(=O)(=O)C1 (stereo not drawn)	?	0%	14%	9	-3%	-9%
N#Cc1nc(COc2cccc(Cl)c2)oc1NCc1ccco1	50µM*	5%	-12%	-1	-10%	?
CN(C)c1cc(NC(=O)CNC(C)(C)CC(C)(C)C)c2ccccc2n1	8.9µM*	-6%	-29%	-1	-7%	-17%
COc1cccc(C(=O)NCCN2CCN(c3ccccc3)CC2)c1	?	-2%	1%	-1	-9%	16µM*
CCn1c(SC(C)C)nnc1-c1cc(-c2ccccc2)sc1N	?	-1%	?	-8	4%	0%
CC(C(=O)N1CCCc2ccccc21)N1CCN(c2ccccn2)CC1 (stereo not drawn)	2.5µM*	-6%	17%	0	12%	-28%
COc1ccc(OCCOCCN2CCOCC2)cc1	11µM*	-10%	-5%	-8	.	?
COc1cc(C)ccc1OCCOCCOc1cccc2ccc(C)nc12	10µM*	-10%	-13%	-2	-5%	?
NS(=O)(=O)c1ccc(N/N=C/c2ccc[nH]2)c([N+](=O)[O-])c1	?	16%	4%	-9	-9%	1%&9%
CCOC(=O)C(C)/C(C)=N\Nc1ccc([N+](=O)[O-])cc1[N+](=O)[O-] (stereo not drawn)	32µM*	-3%	-14%	2	-16%	-21%
Cc1ccc(C(C)C)c(OCc2ccc(C(=O)N/N=C/c3ccc(C(=O)O)cc3)cc2)c1	15%[12.7 µM]	2%	-53%	-1	1%	-1%
COc1ccc(CNN2CCCCC2C(=O)Nc2ccc(OC)c(OCC(C)C)c2)cc1OC (stereo not drawn)	20µM*	15%	3%	6	-2%	?
Cn1c(C(=O)NCCc2c[nH]c3ccccc23)cc2sccc21	40µM*	5%	3%	1	9%	?
Fc1cccc(CSc2ccc3nnc(-c4ccccn4)n3n2)c1	2%	0%	-21%	1	13%	-13%
COc1ccc(Nc2cc(C)c3cc([N+](=O)[O-])ccc3n2)cc1	40µM*	11%	34%	0	2%	1%
Cc1ccc(NC(=O)CN2C(=O)S/C(=C\c3cccn3-c3cccc(C(=O)O)c3)C2=O)cc1C	.	?	-40%	-2	10%	-19%
CCOC(=O)C1CCCN(CCC(C)c2ccccc2)C1 (stereo not drawn)	?	1%	-21%	13	-2%	?

Quoted at random: 5 records from the list
SMILES	G9a block	GLS inh	RGS4 inh	PI4K2A inh	ERG-DNA inh	12-LOX inh
CCOC(=O)C1CCCN(CCC(C)c2ccccc2)C1 (stereo not drawn)	?	1%	-21%	13	-2%	?
CCOC(=O)C1CCCN(Cc2nc(N)nc(Nc3ccc(C)cc3)n2)C1 (stereo not drawn)	4%[12.7 µM]	1%	-30%	2	10%	0%
O=C(c1cccc(-c2ccco2)c1)N1CCCC(N2CCN(c3ccc(F)cc3)CC2)C1 (stereo not drawn)	?	21%	-15%	5	6%	.
Cc1ccc(NC(=O)CN2C(=O)S/C(=C\c3cccn3-c3cccc(C(=O)O)c3)C2=O)cc1C	.	?	-40%	-2	10%	-19%
Cc1ccc(C(C)C)c(OCc2ccc(C(=O)N/N=C/c3ccc(C(=O)O)cc3)cc2)c1	15%[12.7 µM]	2%	-53%	-1	1%	-1%

New compounds follow
SMILES	G9a block	GLS inh	RGS4 inh	PI4K2A inh	ERG-DNA inh	12-LOX inh
Cc1ccc(NCCC(=O)c2cccc([N+](=O)[O-])c2)cc1	22µM*	-13%	-36%	7	-4%	?
O=C(O)Cc1csc(NC(=O)c2ccco2)n1	?	7%	7%	7	5%	21%
CN(CC#CC1(O)c2ccccc2-c2ccccc21)Cc1ccccc1	1.6µM*	2%	-9%	-1	-1%	-12%
CS(=O)(=O)N1CCN(CC2CC3C=CC2C3)CC1 (stereo not drawn)	?	8%	20%	3	-7%	0%
CCOC(=O)C1CCN(Cc2cccc(OC)c2)CC1	10µM*	0%	-33%	1	9%	?
CC(C)(C)NCCOCCOc1ccc(Cl)cc1C(C)(C)C	5µM*	3%	25%	5	9%	?
CCCCOc1ccc(NC(=O)CN2CCN(C(=O)OCC)CC2)cc1	2.5µM*	-9%	?	4	0%	?
CNCCCOc1cc(C)cc(C)c1C	.	9%	10%	4	?	-17%
CC(C)N(CC#CCC1(O)c2ccccc2-c2ccccc21)CCO	?	0%	-26%	-20	.	7.9µM*
CO/N=C/c1ccc(Sc2ccccc2N)c([N+](=O)[O-])c1	?	-4%	14%	-5	-2%	0%
CC(C)(C)c1ccccc1OCCN1CCCC1	?	12%	-11%	2	-5%	?
CCOc1ccc(CNC2CCCc3ccccc32)cc1 (stereo not drawn)	11µM*	2%	22%	-3	0%	?
CCOC(=O)c1ccc(NC(=O)C2(N3C(=O)c4ccccc4C3=O)CCCC2)cc1	.	-16%	-27%	-2	-10%	-20%
CC1(OC(=O)C2CCCC2)C(=O)C=C2C=C(c3ccsc3)N(CCc3ccccn3)C=C2C1=O (stereo not drawn)	-5%[59 µM]	1%	-5%	-8	17%	-20%
Oc1ccc2ccccc2c1C=NC12CN3CCN(CN(C3)C1)C2	?	2%	?	?	-4%	8%
COc1ccc(N=C2SCC(c3ccc([N+](=O)[O-])cc3)=NN2CCO)cc1	.	9%	-4%	2	3%	16%
Cn1c(-c2ccc3c(c2)OCO3)cnc1NCc1ccc(Cl)cc1	?	4%	-14%	7	2%	?
COc1ccccc1CNCC(=O)Nc1cc(S(=O)(=O)N2CCCCCC2)ccc1Cl	3.5µM*	-12%	-4%	3	6%	4%
COc1cccc(CN(C)CC(=O)NCc2ccc(C)cc2)c1	14µM*	12%	26%[56.9 µM]	-1	-9%	?
Cc1[nH]c2ccccc2c1/C=N/NC(=S)NCc1ccccc1	50µM*	0%	-18%[56.9 µM]	5	11%	35µM*
CN(CC(=O)NCCCc1ccccc1)Cc1ccc(Br)cc1	10µM*	-26%	-8%	8	-5%	?
CCCCN1C(C(=O)Nc2ncccn2)=C(O)c2ccccc2S1(=O)=O	28µM*	?	19%	0	13%	18%&-14%
CC(C)CC(=O)N1CCN(Cc2ccc3c(c2)OCO3)CC1	?	-5%	-1%	-3	.	?
Cc1nnc(SCCN2CCOCC2)n1-c1cccc(Cl)c1	?	0%	18%[56.9 µM]	-1	-3%	-13%
COc1cc(OC)c(OC)cc1CN1CCN(S(=O)(=O)c2ccc(F)cc2)CC1	?	9%	-9%	13	-2%	?
C=CCOc1ccc(CN(C)c2ccc(S(=O)(=O)N3CCN(C)CC3)cc2[N+](=O)[O-])cc1	-10%[2.33 µM]	19%	-7%	1	15%[15.4 µM]	?
N=c1scc(-c2ccccc2)n1/N=C/c1ccco1	11µM*	3%	-41%	-7	7%	-15%
O=C(CSc1ccc(-c2ccccn2)nn1)Nc1ccc(F)c(F)c1	41%	7%&2%	-1%&6%	7&5	-8%&7%	5%&-3%
CCCn1c(C)cc(-c2csc(N)n2)c1C	11µM*	21%	-30%	-26	-10%	35µM*
COCCOc1cc(NCc2ccccc2)c2ncn(C(C)C)c2c1	.	20%	-42%	-15	-2%	?
COc1ccccc1-c1sc2cc3c(cc2c1C#Cc1ccccn1)OCO3	-10%[0.501 µM]	-1%	-20%	-5	2%	?
Cc1cccc(C(=O)Oc2ccc(/C=N/NC(=O)c3cc(O)cc(O)c3)cc2)c1	.	-32%	-11%	1	-2%	0%
O=S(=O)(c1ccc2ccccc2c1)N1CCN(C2Cc3ccccc3C2)CC1	10µM*	-2%	0%	-3	19%	-29%
O=C1c2cccc3cccc(c23)C(=O)N1CCCN1CCN(c2ccc(F)cc2)CC1	40µM*	4%	8%	1	-8%	3%
COc1ccc(Nc2ccc(S(=O)(=O)N3CCCCC3)cc2[N+](=O)[O-])cc1	25µM*	20%	41%	1	-6%	-13%
CN(C)c1cc(NC(=O)CN2CCCC2)c2ccccc2n1	18µM*	0%	-18%	8	7%	?
CCc1ccc(NC(=O)CNCc2ccc(OC)c(OC)c2)cc1	-51%	9%	-10%[56.9 µM]	6	-1%	-10%
COc1cc(CN2CCC(C(=O)N3CCCC(C)C3)CC2)cc(OC)c1O (stereo not drawn)	7.9µM*	28%	-6%	3	.	?
Cc1ccc(OCCCCN2CCC(C)CC2)c(Br)c1	?	-2%	-21%	8	-4%	?
CN(C)CCCCOc1ccccc1-c1ccccc1	3.5µM*	?	29%	2	-4%	-46%
Cc1ccc2c(c1)C(C)CC(C)(C)N2C(=O)CN1CCN(C)CC1 (stereo not drawn)	13µM*	13%	11%	1	2%	-27%
Cc1ccc(NC(=O)CN2CCc3ccccc3C2)cc1F	.	0%	16%	-1	-6%	?
CCN(c1ccc(NC(=O)COC(=O)/C=C/c2ccco2)cc1)C(C)C	.	32%[activator]	-52%	0	-1%[15.4 µM]	2%
COc1ccc(CC(=O)Nc2nnc3n2CCS3)cc1OC	13µM*	-14%	28%	2	0%	-7%
C#CCOc1ccccc1CNC1CCN(Cc2ccccc2)CC1	11µM*	3%	-16%	3	2%	?
COc1ccc(-n2cnc3cc(NCc4ccccn4)ccc32)cc1	12%[59 µM]	4%	9%	-7	-3%	-9%
CCc1cc(C(=O)NCC(c2ccc(OC)cc2)N2CCOCC2)sc1C (stereo not drawn)	8.9µM*	4%	5%	-3	-3%	-13%
Cc1ccccc1-n1cnc2cc(NCc3cccs3)ccc21	?	-18%	-43%	4	5%	0%
COc1ccc(C(=O)N2CCN(CCCc3ccccc3)CC2)cc1OC	16µM*	-2%	-6%	4	6%	?
Cc1ccc(C2=Nc3c(ccc4ccccc34)C(c3ccncc3)=NN2)cc1	?	-3%	-7%	0	-10%	3%
Cc1cc(Br)ccc1OCCNCc1ccccc1	7.9µM*	18%	16%	-1	-7%	6.3µM*
C=CSc1sc(Cl)c(N(CC)CC)c1[N+](=O)[O-]	22µM*	7%	-14%	-7	1%	?
COc1cc(CN2CCC(C(=O)NCC(C)(C)CN(C)C)CC2)ccc1OCc1ccccc1	10µM*	7%	-10%	4	-11%	?
COc1ccc(CN(C)CC(=O)Nc2ccc(Cl)cc2C(F)(F)F)c(OC)c1	25µM*	-2%	16%	-4	3%	-24%
COc1ccc(C(=O)N2CCN(Cc3ccccn3)CC2)cc1	10µM*	-1%	6%	-2	3%	?
C/C(=N\N1CCN(Cc2ccc(Cl)cc2)CC1)c1ccc([N+](=O)[O-])cc1	.	-2%	-15%	3	-7%	0%
